Bioassay records from PubChem BioAssay.
Ecoli growth: blocks Escherichia coli growth; OD600, 23 h; stronger effect = lower value; 330,000 tested, 0.21% active; OD600 absorbance (concentration not given with the values);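 active means OD600 absorbance below the run mean of sample wells minus 3.6 SD, in any replicate, cut at about 0.56 in these data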;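 further: stock transfer was 300 nL into about 60 µL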
rRNA inh HTS: inhibits bacterial ribosomal RNA function over humanized ribosomes | E. coli WT GFP vs humanized-ribosome RFP mutants, fluorescence, 24 h; stronger effect = lower value; DMSO median 0, no signal -100 | GFP signal change (wild-type ribosome), % (test concentration not listed) | 350,000 tested, 1.6% active | AID 720706;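 active means significant combined selectivity score with lowered wild-type GFP, culture density cut under 30%, mutant RFP and density less affected; inactive means any of these conditions unmet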; further: one replicate is shown; some compounds called inactive have numbers as strong as hits
ALR H2O2 inh: inhibitors of human sulfhydryl oxidase ALR; P55789; purified ALR, DTT oxidation, H2O2 HRP-luminol luminescence; inhibition, % (no concentration beside the values); 290,000 tested, 3.8% active; AID 485317;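 active means mean and each replicate at 75% or more; inconclusive means only one of the two met; inactive means neither met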;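 further: stock transfer was 7.5 nL into about 7.5 µL; 0% = neutral wells and 100% = wells with inactivated enzyme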
Target sequence (P55789 whole entry, looked up): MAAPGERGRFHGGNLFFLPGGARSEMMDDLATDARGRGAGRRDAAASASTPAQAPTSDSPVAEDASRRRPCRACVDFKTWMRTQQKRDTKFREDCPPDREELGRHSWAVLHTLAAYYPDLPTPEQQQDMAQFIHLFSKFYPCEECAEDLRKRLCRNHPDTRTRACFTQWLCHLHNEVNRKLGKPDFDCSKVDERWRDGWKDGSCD
FGF22 binding: shifts melting point of recombinant human FGF22 | AID 651658 | recombinant FGF22 thermal shift, SYPRO orange fluorescence; percent of sucrose octasulfate shift, DMSO zero | calls only at 9.99 µM | 340,000 tested, 1.5% active;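 active means melting point raised past a set limit in the mean and every replicate; inconclusive means no clear call; three in four hits are not shown here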
Target sequence (Q9HCT0 whole entry, looked up): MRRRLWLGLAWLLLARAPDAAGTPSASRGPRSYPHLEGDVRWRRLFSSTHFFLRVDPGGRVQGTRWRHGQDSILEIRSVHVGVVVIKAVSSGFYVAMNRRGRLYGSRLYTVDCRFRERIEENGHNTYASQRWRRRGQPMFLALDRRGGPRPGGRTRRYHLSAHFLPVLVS
MLL AF4-AF9 inh: blocks AF4 peptide binding to human AF9; 350,000 tested, 0.47% active; AID 651704; inhibition, % at 10 µM; AlphaScreen, biotin-AF4 peptide binding to FLAG-AF9;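 active means every replicate reaching a set inhibition limit, whatever the replicate mean, cut at about 25% in these data; inconclusive means mean inhibition reaches that limit but some replicates miss it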;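 further: 0% = plate neutral control median and 100% = total signal loss; the record names both 10 and 1 µM as test concentration; the first replicate is given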
Target sequence (P42568 whole entry, looked up): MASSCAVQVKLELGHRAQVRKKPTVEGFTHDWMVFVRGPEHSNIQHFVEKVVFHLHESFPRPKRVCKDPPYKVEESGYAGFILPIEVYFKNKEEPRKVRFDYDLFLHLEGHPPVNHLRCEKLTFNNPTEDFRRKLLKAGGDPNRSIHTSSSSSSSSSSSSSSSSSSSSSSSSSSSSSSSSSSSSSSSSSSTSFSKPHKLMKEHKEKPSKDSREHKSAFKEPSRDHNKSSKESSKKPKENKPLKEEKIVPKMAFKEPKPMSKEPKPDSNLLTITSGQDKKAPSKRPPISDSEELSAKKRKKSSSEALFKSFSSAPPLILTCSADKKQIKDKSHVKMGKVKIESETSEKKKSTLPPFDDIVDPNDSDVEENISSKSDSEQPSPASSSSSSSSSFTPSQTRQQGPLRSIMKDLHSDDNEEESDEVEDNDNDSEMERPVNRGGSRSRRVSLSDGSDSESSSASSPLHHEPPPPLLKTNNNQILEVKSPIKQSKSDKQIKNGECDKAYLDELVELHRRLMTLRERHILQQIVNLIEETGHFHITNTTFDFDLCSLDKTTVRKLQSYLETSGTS
HNF4A DNA FP: change in binding of human HNF4 alpha to DNA | HNF4a-FITC DNA binding, fluorescence polarization, 1 h | activity change, % at 10 µM | 360,000 tested, 0.3% active; in the data active means activity change above about 30%, passing the limit was not always enough;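 further: controls were the assay level and a saturating level of protein; the project sought stronger binding though the title names inhibitors; some compounds called inactive have numbers as strong as hits; positive values seem to mean higher polarization but the record does not say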
Vif TR-FRET: inhibitors of Vif binding to APOBEC3G peptide, primary screen, biochemical, TR-FRET, GST-Vif 1-94, biotin-A3G peptide, dose response retest (AID 1117319). TR-FRET GST-Vif / biotin-A3G peptide binding; higher % means a stronger effect; test concentration not given here; strong numbers were not always called active. inhibition, %, or IC50 in µM where a hit was titrated. 260,000 tested, 0.57% active;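 active means above the screen mean plus three standard deviations and confirmed in dose response; inconclusive means results disagree or hit not tested in dose response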;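 further: Vif residues 1-94 fused to GST binding biotinylated APOBEC3G peptide 110-148; 0% = full assay without inhibitor and 100% = GST in place of GST-Vif; retest series ran down from 100 µM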
rRNA inh HTS OD600: second read-out of rRNA inh HTS, no call of its own (marks repeat the call); OD600 change, %; measured here: OD600 growth;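 optical density of the mix in the first replicate; 0 = DMSO median and -100 = no signal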
rRNA inh HTS RFP: recorded beside rRNA inh HTS, whose call it bears; RFP signal change, %; measured here: RFP humanized mutant strains;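 first replicate; 0 = DMSO median and -100 = no signal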
An asterisk follows results filed as active; i = inactive; u = inconclusive; x = no result given; & = joins results of further samples.

Every second line gives: rRNA inh HTS OD600	rRNA inh HTS RFP	rRNA inh HTS	ALR H2O2 inh	Ecoli growth	HNF4A DNA FP	FGF22 binding	MLL AF4-AF9 inh	Vif TR-FRET
1	C[C@@H]1CN([C@H](C)CO)C(=O)c2cc(NC(=O)Nc3ccc(F)cc3)ccc2O[C@@H](C)CCCCO[C@H]1CN(C)Cc1ccc(C(F)(F)F)cc1
  -2	-3.0	-9	x	x	x	i	1.7	x
2	C[C@H](NC(=O)C[C@@H]1CC[C@H]2[C@@H](COC[C@@H](O)CN2C(=O)Nc2cc(Cl)cc(Cl)c2)O1)c1ccccc1
  -56	17	-40	x	x	x	i	-0.1	x
3	CC(C)NC(=O)N(C)C[C@H]1Oc2c(NC(=O)c3cnccn3)cccc2C(=O)N([C@H](C)CO)C[C@H]1C
  11	-0.8	8	x	x	x	i	-1.4	x
4	CC(C)C[C@@H](COCc1cccc(C(F)(F)F)c1)N1CCN(C(=O)c2ccc(C(F)(F)F)cc2)CCC1=O
  1	-0.3	5	x	x	-0.8	i	0.6	x
5	CC(C)(C)NC(=O)CN(Cc1ccc(F)cc1)C(=O)Cn1nnc(-c2ccc(F)cc2)n1
  -36	-2.1	-29	-6	0.73	-0.7	i	-0.8	5%
6	O=c1cc[nH]c2c(C(F)(F)F)cccc12
  x	x	x	-3	0.71	0.9	x	x	1%
7	CCCCCn1c(S(=O)(=O)O)nc2ccccc21
  x	x	x	-3	0.68	1.9	x	x	5%
8	CCOc1ccccc1NC(=O)Nc1ccsc1C(=O)OC
  4	-1.4	-6	1	0.68	2.4	i	-14	x
9	CCOc1ccc(-c2nnn(CC(=O)c3cc(OC)ccc3OC)n2)cc1
  x	x	x	-3	0.65	-1.9	x	x	-24%
10	Cn1c(C(=O)NCCCN2CCN(c3ccc(F)cc3)CC2)cc2c(=O)n(C)c3ccccc3c21
  4	0.7	-2	x	0.74	-1.1	i	-2.8	-5%
11	CCN(CC)S(=O)(=O)c1ccc(/C=C/C(=O)N(c2ccccn2)C2CCCCC2)cc1
  5	-0.6	3	-19	0.73	0.5	i	-1.4	-13%
12	CCOC(=O)c1sc2nc(SCC#N)n(CC3CCCO3)c(=O)c2c1C (stereo not drawn)
  x	x	x	-11	0.69	4.0	x	x	1%
13	Cc1nn(Cc2ccc(C(=O)O)o2)c(C)c1[N+](=O)[O-]
  14	-3.3	24	-8	0.69	2.5	x	-1.6	-11%
14	Cc1cccc(N2C(=O)N3[C@H](c4ccc(Br)cc4)[C@@H]4C(=O)N(C(C)(C)C)C(=O)[C@@H]4[C@]3(Cc3ccc(Cl)cc3)C2=O)c1
  13&2	-2.3&-7.8	10&8	8	x	-1.1	i	1.6	x
15	Cc1ccc(S(=O)(=O)N(CC(O)CN2CCOCC2)c2cc(Cl)ccc2Cl)cc1 (stereo not drawn)
  x	x	x	-7	0.77	-1.3	x	x	0%&0%
16	Fc1ccccc1COc1ccc(Br)cc1CNCC1CCCO1 (stereo not drawn)
  -62	-7.8	-45	x	0.63	1.1	i	3.1	-6%
17	Cc1cc(C)cc(NC(=O)c2ccccc2CC[N+](=O)[O-])c1
  x	x	x	12	0.77	-2.5	x	x	4%
18	CCn1c(=O)n(CC)c2cc(S(=O)(=O)N3CCC(c4ccccc4)CC3)ccc21
  10	0.7	6	-8	0.7	-2.3	x	x	0%
19	CS(=O)(=O)N(CC(=O)N1CCCC1)c1cccc(Cl)c1
  x	x	x	x	0.71	0.7	x	x	8%
20	Cc1nc2c(-c3ccc(F)cc3)cnn2c(N)c1-c1ccc(F)cc1
  7	0.4	1	-6	0.69	-1.6	i	-0.5	-1%
21	CC(=O)N1c2ccc(S(=O)(=O)N3CCCC3C(=O)Nc3cccc(F)c3)cc2CC1C (stereo not drawn)
  -1	2.1	-4	-1	0.78	-3.5	i	0.0	-5%
22	CN(Cc1cnn(Cc2ccccc2)c1)C(=O)c1cccc(S(=O)(=O)N2CCOCC2)c1
  4	-2.7	9	0	0.65	5.8	i	-4.0	-7%
23	COc1ccccc1C(=O)Oc1ccc(C(C)(C)C)cc1
  x	x	x	x	0.69	1.2	x	x	9%
24	CC1=Nn2c(nnc2-c2ccccn2)SC1
  x	x	x	-18	0.73	-1.7	x	x	-5%
25	COc1ccc(C(=O)Nc2nnc(Cc3cccs3)s2)cc1OC
  x	x	x	2	0.81	2.0	x	x	-30%
26	Cc1csc(NC(=O)C2CCCN2C(=O)Oc2ccccc2)n1 (stereo not drawn)
  x	x	x	-8	0.67	0.4	x	x	-5%
27	C[C@H](O)C#Cc1cnc2c(c1)C(=O)N([C@H](C)CO)C[C@@H](C)[C@@H](CN(C)C(=O)CN(C)C)O2
  10	-3.1	2	x	x	x	i	-1.6	x
28	O=C(Cc1ccccc1)NC1CCN(C(=O)NCc2ccccc2)CC1
  x	x	x	-5	0.68	0.1	x	x	5%
29	CCCC1CCC(c2ccc(OCC)cc2)=CC1=O (stereo not drawn)
  -20	-0.9	-18	8	0.68	1.2	i	-3.1	x
30	CCc1cc2c(N3CCN(c4nnc(CC)s4)CC3)ncnc2s1
  x	x	x	1	0.69	-0.9	x	x	20%

Fetched one by one from the entries so far, 3 records:
Every second line gives: rRNA inh HTS OD600	rRNA inh HTS RFP	rRNA inh HTS	ALR H2O2 inh	Ecoli growth	HNF4A DNA FP	FGF22 binding	MLL AF4-AF9 inh	Vif TR-FRET
3	CC(C)NC(=O)N(C)C[C@H]1Oc2c(NC(=O)c3cnccn3)cccc2C(=O)N([C@H](C)CO)C[C@H]1C
  11	-0.8	8	x	x	x	i	-1.4	x
4	CC(C)C[C@@H](COCc1cccc(C(F)(F)F)c1)N1CCN(C(=O)c2ccc(C(F)(F)F)cc2)CCC1=O
  1	-0.3	5	x	x	-0.8	i	0.6	x
22	CN(Cc1cnn(Cc2ccccc2)c1)C(=O)c1cccc(S(=O)(=O)N2CCOCC2)c1
  4	-2.7	9	0	0.65	5.8	i	-4.0	-7%

Later entries
Every second line gives: rRNA inh HTS OD600	rRNA inh HTS RFP	rRNA inh HTS	ALR H2O2 inh	Ecoli growth	HNF4A DNA FP	FGF22 binding	MLL AF4-AF9 inh	Vif TR-FRET
31	CC(C)c1ccc(NC(=O)COC(=O)C2CCCCC2)cc1
  -55	9.7	-30	-20	0.69	-0.3	i	-2.0	-3%
32	COc1ccc(CN(C)C[C@@H]2Oc3ccc(NC(=O)Nc4ccc5c(c4)OCO5)cc3CC(=O)N([C@H](C)CO)C[C@H]2C)cc1
  -13	3.3	-7	x	x	x	i	5.7	x
33	Cc1nc2nc(SCC(=O)NCCCN3CCCC3)nn2c(C)c1Cc1ccccc1Cl
  3	2.6	3	-6	0.68	-0.7	i	0.0	-3%
34	OC(CN1CCOCC1)Cn1cnc2ccccc21 (stereo not drawn)
  9	-0.4	5	7	0.66	2.6	i	-2.0	-10%
35	Cc1cccc(C(=O)N2CCC(N3CCC(C(=O)N4CCOCC4)CC3)CC2)c1
  3	6.9	10	0	0.65	10	i	0.8	3%
36	CC(C)NC(=O)N[C@H]1C=C[C@H](CC(=O)NCc2ccc(Oc3ccccc3)cc2)O[C@@H]1CO
  4&14	2.7&1.6	2&-6	x	x	7.5	i	-0.6&0.4	x
37	O=C(CSc1nnc(CNC(=O)c2ccco2)o1)Nc1ccc(F)cc1
  0	-0.8	0	-8	0.67	4.2	i	-1.5	x
38	COc1cccc(CN2CCN(CC#Cc3ccccc3)CC2CCO)c1 (stereo not drawn)
  -2	-1.2	0	-3	0.68	-1.0	i	-1.3	x
39	COc1ccccc1/C=C/C(=O)N1CCN(S(=O)(=O)c2cc(C)ccc2C)CC1
  -34	-0.4	-31	x	0.68	-4.0	i	2.7	-6%
40	C[C@H]1CN([C@@H](C)CO)C(=O)c2cccc(NC(=O)Nc3ccccc3)c2O[C@@H]1CN(C)Cc1ccc2c(c1)OCO2
  -20	-3.9	2	x	x	x	i	-8.5	x
41	CCCN1C[C@@H](C)[C@@H](OC)CN(C)C(=O)c2ccc(NC(=O)Nc3cccc(F)c3)cc2OC[C@H]1C
  0	2.1	-3	x	x	x	i	5.5	x
42	CC(=O)c1ccc(Nc2nc(C(N)C3CCCCC3)cs2)cc1 (stereo not drawn)
  -26	38	2	x	x	3.0	i	2.4	x
43	CN(C)CCCNC(=O)c1cccc(-c2ccc3nncn3c2)c1
  17	-0.1	7	x	x	-1.1	i	-1.8	x
44	CCCNC(=O)c1cc(C2CCCCN2S(=O)(=O)c2ccc(F)cc2F)on1 (stereo not drawn)
  3	2.5	5	x	x	-1.1	i	-4.0	x
45	Cc1ccsc1/C=N/NC(=O)C1C(=O)NCC1c1ccccc1 (stereo not drawn)
  -6	-3.5	-5	x	x	x	i	-4.0	0%
46	O=C(C[C@@H]1CC[C@H](NC(=O)CCN2CCCCC2)[C@@H](CO)O1)NCc1ccc(Cl)c(Cl)c1
  2	1.0	-2	x	x	x	i	1.8	x
47	Cc1cccc(NC(=O)C2C(c3ccccc3)C2(Cl)Cl)c1C (stereo not drawn)
  x	x	x	-5	0.7	-1.9	x	x	3%
48	COC(=O)c1ccc2c(=O)n(CCCCCC(=O)O)c(=S)[nH]c2c1
  x	x	x	3	0.7	-3.0	x	x	0%
49	COc1ccc(S(=O)(=O)N2CCC[C@H]2C(=O)N2CCC[C@H]2C(=O)N[C@@H](C)c2ccccc2)cc1C
  4	9.8	3	x	x	-0.2	i	-0.2	x
50	C#CCOCCOCCOCCNc1nc(N2CCN(C(=O)[C@H](CCCCN)n3cc([C@@H](N)[C@H](C)CC)nn3)CC2)nc(N2CCN(C(=O)[C@H](CCC(=O)O)n3cc([C@@H](N)CCCCN)nn3)CC2)n1
  21	-1.2	11	-2	x	13	i	34*	x
51	O=C(Nc1ccccc1)c1cn(CCBr)cn1
  13	1.9	6	-17	0.6	1.3	i	0.7	x
52	O=C(O)CCCC(=O)Nc1ccccc1Oc1ccccc1
  -14	0.9	5	4	0.66	-3.3	i	5.7	2%
53	CCc1cccc(C)c1NC(=O)c1cc(=O)[nH]c2ccc(S(=O)(=O)N3CCOCC3)cc12
  5	2.3	-3	-2	0.68	3.8	i	-0.1	2%
54	CCCNC(=O)N1C2=NC(C(=O)OC)=C(C(=O)OC)[C@@H]3N(Cc4ccccc4)c4ccccc4[C@]23C[C@H]1CO
  1	-3.2	5	-7	x	3.5	i	6.0	x
55	COc1cccc(NC(=O)c2ccc(-c3ccccc3[N+](=O)[O-])o2)c1
  -38	-5.5	-43	u	0.67	5.5	i	0.7	-5%

Whole records, looked up by structure. Order of values: rRNA inh HTS OD600	rRNA inh HTS RFP	rRNA inh HTS	ALR H2O2 inh	Ecoli growth	HNF4A DNA FP	FGF22 binding	MLL AF4-AF9 inh	Vif TR-FRET
CCCNC(=O)N1C2=NC(C(=O)OC)=C(C(=O)OC)[C@@H]3N(Cc4ccccc4)c4ccccc4[C@]23C[C@H]1CO as listed: 1	-3.2	5	-7	x	3.5	i	6.0	x
COC(=O)c1ccc2c(=O)n(CCCCCC(=O)O)c(=S)[nH]c2c1 as listed: x	x	x	3	0.7	-3.0	x	x	0%

Taken from above.
cpd 33 in rRNA inh HTS OD600 reads 3
cpd 45 in rRNA inh HTS RFP reads -3.5
cpd 36 in rRNA inh HTS RFP reads 2.7&1.6
cpd 35 in Ecoli growth reads 0.65
cpd 34 in rRNA inh HTS RFP reads -0.4

These rows are one share of the data, so the mix of outcomes need not match the whole.
